Screens (PubChem BioAssay)
Mtb betalactam: beta-lactam sensitization of Mtb H37Rv, H37Rv; M. tuberculosis H37Rv growth with meropenem, percent inhibition; hits of this screen are not shown here; inhibition, % at 25 µM; hit rate 0.27% among 330,000; AID 434955, 2010;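 active = about 74% or more and at least 40 points above the plate without the antibiotic, then above 30% in a dose series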;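 also: growth measured after seven days incubation then overnight dye step; 0% = bacteria only wells and 100% = bacteria with antibiotic; twin plates without the antibiotic show which effects depend on it; some results filed as inactive read as strong as hits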
Numbers without * were called inactive. A portion of the library. The share of hits here may be higher or lower than overall.

SMILES | Mtb betalactam
Cc1cccc(S(=O)(=O)N2CCn3cccc3C2C)c1 (stereo not given) | -4
Cc1ccc(C(=O)OCC(=O)NCc2ccc(F)cc2)o1 | 0
COc1ccc(CCNC(=O)c2cc(-c3ccccn3)nc3ccccc23)cc1 | 0
CC1(c2ccc(OC(F)F)cc2)NC(=O)N(CC(=O)N2c3ccccc3NC(=O)C2(C)C)C1=O (stereo not given) | -2
C=CCC[C@@H](Cc1ccc(F)cc1)C(=O)OC[C@H](Cc1c[nH]c2ccccc12)NC(=O)[C@@H](CC=C)CC(=O)N[C@@H](CO)Cc1ccccc1 | -6
Cc1cc(S(=O)(=O)N2CCOCC2)ccc1OCC(=O)Nc1ccc(Br)cc1F | -2
O=C(Cc1ccccc1)OCC(=O)c1cccc([N+](=O)[O-])c1 | 4
C=CCN1C(=O)c2ccccc2NC1c1cc(Br)cs1 (stereo not given) | 7
O=C(CN1C(=O)NC2(CCc3ccccc32)C1=O)Nc1ccccc1OC(F)F (stereo not given) | -1
COC(=O)C1=C(c2ccc(F)cc2OCc2ccccc2)C[C@@H]2CC[C@H]1N2C(=O)NCc1ccccc1OC | -9
C[C@H](CO)N1C[C@H](C)[C@@H](CN(C)S(=O)(=O)c2ccccc2)Oc2ccc(NS(=O)(=O)c3cccs3)cc2C1=O | 1
Cc1cc(C)n2nc(SCC(=O)N3CC(C)CC(C)C3)nc2n1 (stereo not given) | -7
CC1CN(S(=O)(=O)c2ccc(C(=O)Nc3nncs3)cc2)CC(C)O1 (stereo not given) | -2
COCCOc1ccc(C(F)(F)F)cc1NC(=O)CN1C(=O)NC2(CCCc3ccccc32)C1=O (stereo not given) | 0
CC(C)N(Cc1ccccc1)C(=O)CN1C(=O)NC2(CCOc3ccccc32)C1=O (stereo not given) | 1
Nc1c(N(CCC2=CCCCC2)C(=O)Cc2ccccc2F)c(=O)[nH]c(=O)n1Cc1ccccc1 | -16
O=C(CNC(=O)OCc1ccccc1)Nc1ccc(F)cc1 | 1
C[C@H](CO)N1C[C@H](C)[C@@H](CN(C)S(=O)(=O)c2ccc(F)cc2)Oc2ccc(NC(=O)Cc3cn(C)c4ccccc34)cc2C1=O | 10
CC(C)[C@H](NS(=O)(=O)c1cccc(Cl)c1)C(=O)OCC(=O)NC(=O)CN1CCCC1=O | -8
CC(=O)c1ccc(S(=O)(=O)N2CCN(CC(=O)NC(=O)NC3CCCCC3)CC2)cc1 | 2
COc1cc(C(=O)NCc2ccc(S(N)(=O)=O)cc2)ccc1OCC(=O)Nc1cccc(C(F)(F)F)c1 | 10
COC(=O)C1(C)NC(c2ccccc2C)C2C(=O)N(c3ccc(F)cc3)C(=O)C21 (stereo not given) | -11
O=C1COc2ccc(C(=O)COC(=O)c3ncc(Cl)c(Cl)c3Cl)cc2N1 | -12
CCOC(=O)C1CCCN(C(=O)c2cccc(N3C(=O)c4ccccc4C3=O)c2)C1 (stereo not given) | -2
COc1ccc(C(=O)NNC(=O)CSc2nc(C(C)C)nc3ccccc23)cc1 | 2
CN(C(=O)CSc1nnc(C2CC2)n1C1CC1)C1(C#N)CCCCC1 | -7
COc1ccc(C(=O)N2CCN(c3ccc(C(C)=O)cc3)CC2)cc1S(=O)(=O)N1CCCC1 | -3
O=C(CN1C(=O)NC(c2ccccc2)(c2ccccc2)C1=O)NCc1ccccc1 | 0
CC1CN(S(=O)(=O)c2cccc(C(=O)OCCOc3ccccc3)c2)CC(C)O1 (stereo not given) | 1
O=C(CN1C(=O)NC2(CCCC2)C1=O)Nc1nc2ccccc2[nH]1 | 3

Exported in markdown: 2 of the compounds above
| SMILES | Mtb betalactam |
| --- | --- |
| O=C(CN1C(=O)NC2(CCCC2)C1=O)Nc1nc2ccccc2[nH]1 | 3 |
| COc1ccc(C(=O)NNC(=O)CSc2nc(C(C)C)nc3ccccc23)cc1 | 2 |

The list goes on:
SMILES | Mtb betalactam
CCCCC(NC(=O)c1ccc(C#N)cc1)C(=O)NCCC (stereo not given) | -2
CCc1ccc(N2CC(C(=O)OCC(=O)Nc3ccccc3C)CC2=O)cc1 (stereo not given) | 3
CSc1ccccc1NC(=O)COC(=O)Cn1cc(C(F)(F)F)ccc1=O | -10
O=C(CCNC(=O)N1C[C@H]2C[C@@H](C1)c1cccc(=O)n1C2)Nc1ccc(F)cc1 | -5
COc1cc(C(=O)OCC(=O)NCC2CCCO2)cc(OC)c1OC (stereo not given) | -1
Cc1cccc(N2CCN(C(=O)c3c(-c4ccccc4)noc3C)CC2)c1C | 62
COC(=O)C1=C(c2ccc(-c3ccccc3)c(F)c2)C[C@@H]2CC[C@H]1N2C(=O)NCCOc1ccc(OC)cc1 | 7
CC(C)NC(=O)N(C)C[C@H]1Oc2c(NC(=O)Nc3ccccc3)cccc2C(=O)N([C@H](C)CO)C[C@@H]1C | 11
COc1cc(C=O)ccc1OCC(=O)Nc1cccc(S(=O)(=O)N(C)c2ccccc2)c1 | 1
CC(C)N1CCC(=NNC(=O)c2cccs2)CC1 | 0
Cc1ccccc1C(=O)NNC(=O)C1CC(=O)N(c2ccc3c(c2)OCCO3)C1 (stereo not given) | 6
CCOC(=O)C1CCN(S(=O)(=O)c2cc(C(=O)N3CCCCC3)ccc2OC)CC1 | -11
Nc1ncccc1C(=O)OCC(=O)N1CCN(S(=O)(=O)c2ccc(Cl)cc2)CC1 | 1
O=C(C[n+]1ccccc1)N/N=C/c1ccc(Cl)cc1 | 45
Cc1ccc(S(=O)(=O)N2CCOCC2)cc1NC(=O)COC(=O)c1cnccn1 | -2
CC(=O)Nc1c(I)c(C(=O)N[C@H]2C(O)O[C@H](CO)[C@@H](O)[C@@H]2O)c(I)c(N(C)C(C)=O)c1I (stereo not given in full) | 3
COc1ccc(NC(=O)COc2ccccc2)cc1NC(=O)c1ccco1 | 5
O=C(CN(C(=O)c1csnn1)c1cccc(C(F)(F)F)c1)NCc1ccc(F)cc1 | -5
Cc1ccc(OCC(=O)Nc2ccc(Cl)cc2)c([N+](=O)[O-])n1 | -6
COCCn1cnnc1SCC(=O)Nc1sc2c(c1C#N)CCC2 | 2

Continued; the last seven above are carried over.
SMILES | Mtb betalactam
O=C(C[n+]1ccccc1)N/N=C/c1ccc(Cl)cc1 | 45
Cc1ccc(S(=O)(=O)N2CCOCC2)cc1NC(=O)COC(=O)c1cnccn1 | -2
CC(=O)Nc1c(I)c(C(=O)N[C@H]2C(O)O[C@H](CO)[C@@H](O)[C@@H]2O)c(I)c(N(C)C(C)=O)c1I (stereo not given in full) | 3
COc1ccc(NC(=O)COc2ccccc2)cc1NC(=O)c1ccco1 | 5
O=C(CN(C(=O)c1csnn1)c1cccc(C(F)(F)F)c1)NCc1ccc(F)cc1 | -5
Cc1ccc(OCC(=O)Nc2ccc(Cl)cc2)c([N+](=O)[O-])n1 | -6
COCCn1cnnc1SCC(=O)Nc1sc2c(c1C#N)CCC2 | 2
Cc1cccc(C(=O)NCC(=O)N2CC=C(c3ccccc3)CC2)c1 | 2
Cc1c(OC(C)C(=O)N[C@@H](Cc2ccccc2)C(=O)O)ccc2c3c(c(=O)oc12)CCCC3 (stereo not given in full) | -6
C[C@H]1COC(=O)[C@H](Cc2ccc(F)cc2)C/C=C\C[C@H](CC(=O)NCCO)C(=O)N1 | 4
O=C(Cn1c(CO)nc2ccccc21)Nc1ccc2c(c1)OCCCO2 | -2
Cc1ccc(NC(=O)c2nc3nccc(C)n3n2)cc1S(=O)(=O)N1CCCCC1 | 0
O=C(O)c1ccn(CSc2cc(Cl)ccc2Cl)n1 | -3
Cc1cc(NC(=O)c2ccc3nccnc3c2)ccc1Br | -7
Nc1c(Cl)cc(-c2cn(CCC(=O)O)c(-c3ccncc3)n2)cc1Cl | 6
O=C(COC(=O)Cc1ccc(Cl)cc1)NCCc1ccccc1 | 12
CC(OC(=O)c1cc(=O)c2ccccc2o1)C(=O)Nc1ccc(N(C)C)cc1 (stereo not given) | 0
COc1cccc2c1oc1c(SCc3nc4ccccc4[nH]3)nc(C)nc12 | -1
O=C(COC(=O)c1cccc(S(=O)(=O)N2CCCCC2)c1)NC1CCCCC1 | -6
COc1ccccc1CNC(=O)COC(=O)CC1CC2CCC1C2 (stereo not given) | -2
O=C(CSc1ccccc1F)NNC(=O)c1ccncc1 | 3
CN1CCN(C(=O)C2CCN(S(=O)(=O)c3ccccc3[N+](=O)[O-])CC2)CC1 | 2
COc1ccccc1CNC(=O)COC(=O)Cc1cccc(F)c1 | 1
N#Cc1cccc(NCC(=O)Nc2cccc(S(=O)(=O)N3CCCCC3)c2)c1 | -9
O=C(CSc1n[nH]c(-c2cccnc2)n1)Nc1ccc([N+](=O)[O-])cc1Br | -3
CCOC(=O)C1=C(COC(=O)CC(C)c2ccccc2)NC(=O)NC1C (stereo not given) | -12
Cc1cc(=O)c(C(=O)Nc2cccc(N3CCCC3=O)c2)nn1-c1ccccc1Cl | 7
CCOc1ccccc1N1CCN(C(=O)c2ccc3c(c2)OCO3)CC1 | -6
O=C(CN1CSCC1=O)N1CCN(S(=O)(=O)c2cccc(F)c2)CC1 | -5
Cc1cc(/C=C\c2ccc3cc(N(C)C)ccc3[n+]2C)c(C)n1-c1ccccc1 | 96
NCCN1CCN2C(=O)CN(C(=O)c3ccccc3)CC12 (stereo not given) | -8
O=C(N[C@@H]1C/C=C\C[C@H](CC(=O)N(CCO)Cc2ccccc2)C(=O)N[C@@H](Cc2ccccc2)COC1=O)OCC1c2ccccc2-c2ccccc21 | 4
COc1ccc(NC(=O)c2cc(C3CC3)nc3c2cnn3C(C)C)cc1OC | 2
COc1cc(OC)cc(-c2c(-c3cccs3)c3cc(-c4ccc5c(c4)OCO5)ccc3n2C)c1 | 4
COc1cc(CC(=O)OCC(=O)N(C)C2CCCCC2)cc(OC)c1OC | -3
C[C@@]12C(=O)Nc3cc(F)ccc3C(=O)N1[C@H]1c3ccccc3OC[C@@H]1[C@@H]2c1ccccc1 | 99
O=C(O)c1cc(S(=O)(=O)Nc2ccc3cn[nH]c3c2)ccc1Cl | 1
O=C(OCc1nnc(-c2ccccc2)o1)c1ccc([N+](=O)[O-])s1 | 77
COc1ccc(NC(=O)Cc2ccccc2F)cc1S(=O)(=O)N1CCCCC1 | 5
C[C@@H]1CN([C@@H](C)CO)C(=O)c2cc(N(C)C)ccc2O[C@@H]1CN(C)S(C)(=O)=O | 10
COC(=O)[C@]1(C)CCC[C@@]2(C)C3CC[C@]4(OC(C)=O)C[C@@]3(CCC21)CC4=O (stereo not given in full) | 0
CN(c1ccc(C(=O)N2CCCCCC2)cc1)S(=O)(=O)c1ccccc1 | -2
O=C1C=C(c2ccc3ccccc3c2)C[C@@H](c2ccc(Cl)cc2)C1 | 52
Cc1cc(C(=O)OCC(=O)Nc2ccc(F)cc2F)c(C)n1C1CC1 | 30
CCc1ccc(C(=O)CSc2nnc(C3CC3)n2C2CC2)cc1 | -8
CCN(Cc1nc2ccccc2c(=O)[nH]1)C(=O)c1cc2c(s1)CCCCC2 | -6
COc1ccccc1NS(=O)(=O)c1cc(NC(=O)CCc2nc3ccccc3c(=O)[nH]2)ccc1C | 0
CSc1ncccc1C(=O)OCC(=O)NC(C)CCc1ccccc1 (stereo not given) | 6
CCC(C(=O)OCC(=O)NCc1ccc2c(c1)OCO2)c1ccccc1 (stereo not given) | -6
CSc1ccc(CN2CCc3c([nH]c4ccccc34)C2)cc1 | -9
COc1ccc(-c2cn(CCO)c(-c3ccc(Cl)nc3)n2)cc1 | 0
O=C(C[C@@H]1C/C=C/CC[C@@H](Cc2ccc(F)cc2)C(=O)OCCNC1=O)N[C@H](CO)Cc1ccccc1 | -4
C#CCOCCOCCOCCNc1nc(N2CCN(C(=O)[C@H](CCCCN)n3cc([C@@H](N)[C@H](C)CC)nn3)CC2)nc(N2CCN(C(=O)[C@H](CCCCN)n3cc([C@@H](N)CC(N)=O)nn3)CC2)n1 | -2
CC1(C)Oc2ccc3ccc(=O)oc3c2C[C@H]1O[C@@H]1O[C@H](CO)[C@@H](O)[C@H](O)[C@H]1O | -3
COc1cc(S(=O)(=O)N2CCOCC2)cc(C(=O)NCC(c2cccs2)N2CCOCC2)c1OC (stereo not given) | 2
Cc1cccc(NC(=O)CSc2nnc(NC(=O)C3CC3)s2)c1C | -5
Cc1ccc(-c2cc(C(=O)N3CCN(C4CCS(=O)(=O)C4)CC3)c3ccccc3n2)cc1 (stereo not given) | 5

Looked up by structure from the entries so far, 2 records:
SMILES | Mtb betalactam
CCOC(=O)C1CCCN(C(=O)c2cccc(N3C(=O)c4ccccc4C3=O)c2)C1 (stereo not given) | -2
CCCCC(NC(=O)c1ccc(C#N)cc1)C(=O)NCCC (stereo not given) | -2

Next section:
SMILES | Mtb betalactam
Cc1ccc(CNC(=O)COC(=O)c2cccc(S(=O)(=O)N3CCCCC3)c2)cc1 | -2
O=C1c2ccccc2/C(=C\c2ccc3[nH]ccc3c2)N1c1ccccc1 | 80
O=C(COC(=O)CCc1ccc(S(=O)(=O)N2CCOCC2)cc1)Nc1ccccc1OC(F)F | -7
NS(=O)(=O)c1ccc(CCNC(=O)CCNS(=O)(=O)c2ccccc2C(F)(F)F)cc1 | -10
CC(=O)c1c(C)[nH]c(C(=O)OCC(=O)c2c(N)n(CC(C)C)c(=O)n(C)c2=O)c1C | -5
CC(C)CCN(C(=O)c1ccc(Br)cc1)c1c(N)n(Cc2ccccc2)c(=O)[nH]c1=O | -2
CN(CC(=O)OCC(=O)NCc1ccccc1)S(=O)(=O)c1ccc(F)cc1 | -3
O=C(Nc1ccc(N2CCOCC2)c(S(=O)(=O)Nc2ccccc2Cl)c1)c1ccc(F)cc1 | -3
COC(=O)C1=C(C)N(Cc2ccccc2)C(=NCC(C)C)N[C@H]1c1cccc(C(F)(F)F)c1 | 99
Cc1nnc(SCC(=O)Nc2cc(Cl)ccc2Cl)n1CC1CCCO1 (stereo not given) | -22
CCCn1c(SCC(=O)Nc2ccc(Cl)cc2F)nc(O)cc1=O | 5
